Sfp PPTase inh – Sfp phosphopantetheinyl transferase inhibition; Potency, µM, without a hit: max response, negative = inhibition, actives largely listed as inhibitors; 310,000 compounds, 3.5% hits; Biochemical Sfp PPTase activity, qHTS; active = well fitted inhibition curve with a large enough effect; inconclusive = small, poorly fitted or top-dose-only effect, or another doubt; inactive = no such curve, though single readings can be large or run the other way;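 note: the enzyme is Sfp with the accession as filed and its product quenches rhodamine fluorescence; potency is the fitted concentration of half-maximal effect; 0% = enzyme reaction without inhibitor and -100% = no enzyme wells; top concentration of the series not given in the record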
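Reaction rates are the 30-min fluorescence difference (ex 525, em 598 nm) in wells containing 15 nM Sfp, 5 uM rhodamine-CoA and 12.5 uM BHQ-2-YbbR at pH 7.6 with 10 mM MgCl2.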
PINK1 modulator – changes PINK1 expression; 410,000 compounds, 0.2% hits; Potency, µM (highest dose often 76.6 µM), for inactives: at the highest dose activation (PINK1 increase), usual class: activators; PINK1 immunofluorescence, high-content cytometry, 24 h; active = well fitted activation curve with a large enough effect; inconclusive = small, poorly fitted or top-dose-only effect; inactive = flat fitted curve, though single readings scatter; cell line not stated here;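 note: potency is the fitted concentration of half-maximal effect; % of control where 0% means no effect; nearly all actives have a fitted effect of over 65% in size; a mitochondrial uncoupler was the plate control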
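A stable cell line was treated with compounds at 5 concentrations for 24 hours, with CCCP as control. PINK1 levels and mitochondrial localization were measured by immunofluorescence with mitochondrial, cell and nuclear markers after fixation, read by laser-scanning cytometry.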
TRPML1 inh – inhibitors of human TRPML1 channel; Q9GZU1; TRPML1-inducible cells, Ca2+ dye fluorescence, FDSS; active compounds read low; inhibition of EC80 agonist-evoked calcium signal; activity change, negative = inhibition, % (concentration not given with the values); 390,000 compounds, 0.02% hits; AID 624415; in the data active means activity change below about -50%; inconclusive means about -30% to -50%; inactive means above about -30%;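 note: stimulus is agonist 54-4 at its EC80 concentration; % is set by controls: 0 for no effect and ±100 for the full control effect; the text of the record puts the active cut at -80%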
Target sequence (Q9GZU1 whole entry, looked up): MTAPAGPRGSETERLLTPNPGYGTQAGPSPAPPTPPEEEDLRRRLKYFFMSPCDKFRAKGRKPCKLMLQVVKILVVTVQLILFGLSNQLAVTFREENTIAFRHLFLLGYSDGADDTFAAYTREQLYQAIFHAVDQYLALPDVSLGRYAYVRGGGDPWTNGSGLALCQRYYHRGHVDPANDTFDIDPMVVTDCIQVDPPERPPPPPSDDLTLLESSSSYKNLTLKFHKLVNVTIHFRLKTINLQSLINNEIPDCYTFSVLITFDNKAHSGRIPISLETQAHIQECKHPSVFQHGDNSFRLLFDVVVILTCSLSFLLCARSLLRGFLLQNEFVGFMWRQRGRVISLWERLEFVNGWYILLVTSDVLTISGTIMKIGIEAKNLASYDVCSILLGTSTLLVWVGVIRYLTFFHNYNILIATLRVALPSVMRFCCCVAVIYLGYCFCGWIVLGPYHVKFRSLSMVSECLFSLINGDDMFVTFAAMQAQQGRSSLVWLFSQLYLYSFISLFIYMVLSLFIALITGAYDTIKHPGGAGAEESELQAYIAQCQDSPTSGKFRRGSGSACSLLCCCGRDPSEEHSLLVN
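Tet-induced TRPML1-DL cells loaded with Ca8 no-wash calcium dye were read kinetically on FDSS. Compound addition was followed by EC80 agonist 54-4 (4 uM final); inhibition was read over 110 s.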
TRPV1 potentiator – potentiators of human vanilloid receptor 1 (TRPV1); TRPV1-expressing cells, Fluo-8 calcium influx, capsaicin EC20 potentiation; host cell line not named in the record; control for the full effect not named in the record; Q8NER1; 320,000 compounds, 0.02% hits; potentiation, % at 8.33 µM; AID 540277; active means potentiation above 80%; inconclusive means 30% to 80%; inactive means below 30%; note: 0% is about no effect
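TRPV1-expressing cells were cultured overnight at 35.5C and loaded with Fluo-8 calcium dye for 40 to 90 min at room temperature. After a 10 s baseline, compound was added and calcium influx was read kinetically for 3 min (ex 480/em 520 nm).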
Menin MLL FP FL – inhibitors of human menin-MLL interaction, wild-type MLL peptide; Fluorescence polarization, fluorescein-MLL peptide displacement from menin; FP activity change, % at 61.4 µM; 290,000 tested, under 10 active; AID 1766; inconclusive = falling polarisation curve, or a change in total fluorescence; inactive = total fluorescence flat and polarisation flat or rising; no compound was filed as active; the % refers to the polarisation; negative = inhibition;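 note: % of control where 0% means no effect; inhibitors lower the polarisation; unlabelled MLL peptide was the positive control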
ClpP mod – qHTS Assay for Activators of ClpP. ATP-dependent Clp protease proteolytic subunit (Bacillus subtilis (strain 168)), P80244. purified B. subtilis ClpP, FRET peptide cleavage, 20 min. Potency, µM (titrated, usually from 57.5 µM), for the others: top-dose activity change, negative = active. 340,000 compounds, 1.9% hits. AID 651965, 2013; active = well fitted falling curve with a large enough effect; inconclusive = small, poorly fitted or top-dose-only effect; inactive = no such curve, though single readings can be large or run the other way; note: potency is the fitted concentration of half-maximal effect; the source files actives as falling curves though it sought activators and does not explain the sign; nearly all actives have a fitted effect of over 65% in size; many hits overshoot -100%
Target sequence (P80244 whole entry, looked up): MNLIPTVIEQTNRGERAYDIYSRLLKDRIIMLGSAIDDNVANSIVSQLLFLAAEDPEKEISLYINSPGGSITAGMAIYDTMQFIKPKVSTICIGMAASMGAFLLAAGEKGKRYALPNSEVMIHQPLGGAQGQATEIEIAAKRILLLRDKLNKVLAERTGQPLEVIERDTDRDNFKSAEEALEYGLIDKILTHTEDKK
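FRET quenching reversal measured ClpP activation: 10 microg/mL B. subtilis ClpP at pH 8 with the FRET-FV decapeptide, read at 430 nm after 320 nm excitation. The 20-min minus 0-min signal was scaled between DMSO/no-enzyme wells and ADEP (5.8 microM final).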
TRPML1 ag – human mucolipin-1 channel agonism; Q9GZU1; TRPML1-expressing cells, Ca2+ dye fluorescence, FDSS; host cell line not named in the record; reference of the full effect not given here; activation, % (no concentration beside the values); 410,000 compounds, 0.12% hits; in the data active = activation above about 50%; inconclusive = about 30% to 50%; inactive = below about 30%; note: 0% is about no effect; the text of the record puts the active cut at 80%
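Calcium fluorescence on an FDSS kinetic reader gave the read-out. Tet-induced TRPML1-DL cells were plated overnight, dye-loaded (Ca8 with quencher, 45-90 min, room temperature, dark), then read 110 s after compound addition, and again 110 s after 4uM final 54-4 (EC80).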
Numbers without * were called inactive; ? = inconclusive; . = no result given; & = joins results of further samples; [ ] = dose if it differs, or a comment.

SMILES	Sfp PPTase inh	PINK1 modulator	TRPML1 inh	TRPV1 potentiator	Menin MLL FP FL	ClpP mod	TRPML1 ag
Cc1cc(C)nc(N(C#N)S(=O)(=O)c2ccc(Br)cc2)n1	5.0%	.	.	29.1	2.1	.	.
COc1ccc(N2CCN(c3nc4ccccn4c(=O)c3C=O)CC2)cc1	-6.5%	-2.5%	20.7	12.8	2.1	-2.2%	0.5
O=C1c2ccccc2C(Nc2ccccc2)N1c1cccnc1 (configuration not stated)	20.9%	-1.1%	3.9	-17.5	-3.0	-5.1%	0.1
Cc1cc(C(=O)N2CCCC(N3CCN(c4cccc(Cl)c4)CC3)C2)nc(C)n1 (configuration not stated)	21.2%	0.7%	3.0	-1.9	.	0.9%	-0.4
COc1ccc(Br)c(C(=O)Nn2c(C)nc3ccccc3c2=O)c1	15.6%	.	-5.0	1.1	-0.7	0.0%	-0.1
COc1ccc(/C=N/NC(=O)c2ccc(O)cc2)cc1CN1CCCc2ccccc21	10.4%	12.2%	11.3	-1.8	1.4	10.9%	-0.1
CC(C)n1c(NCc2cccs2)nc2ccccc21	12.7%	6.9%[38.3 µM]	-8.7	13.2	3.9	1.4%	5.0
COc1ccc(F)c(-c2nc(CN3CCC(c4ccccc4)CC3)c(C)o2)c1	-2.3%	19.3%	0.3	-5.5	1.8	.	0.7
CCOc1ccc(S(=O)(=O)N2CCN(C(=O)c3ccc(C)c(S(=O)(=O)N4CCOCC4)c3)CC2)cc1	.	2.4%	0.5	.	.	1.8%	2.2
Cc1noc(C)c1C(=O)N1CCC1(C)C(=O)NS(=O)(=O)c1cccs1 (configuration not stated)	.	2.6%	.	.	.	1.7%	-0.7
CCC(=O)N1CCN(c2ccc(Cl)cc2NC(=O)c2cccc([N+](=O)[O-])c2)CC1	10.6%	-0.7%	43.7	0.3	0.8	-0.2%	0.0
CCN1CCN(C(=O)c2ccc(COc3cccc(Cl)c3)o2)CC1	-1.8%	0.1%	-16.6	1.3	6.6	-2.1%	0.0
FC(F)Oc1ccc(NC(=S)NCC2COc3ccccc3O2)cc1 (configuration not stated)	0.3%	3.5%	14.3	8.2	6.8	-0.2%	0.2
Nc1ccc(S(=O)(=O)Nc2ccccn2)cc1	12.6%&12.3%	1.4%	24.8	-1.3	0.1	0.1%	0.3
CCc1c(C(=O)O)[nH]c2ccc(Br)cc12	12.0%	1.6%	21.0	.	4.1	0.3%	-0.9
O=C(CSc1nc(O)c(-c2ccccc2)c(=O)[nH]1)N1CCOCC1	-10.6%	1.6%	6.9	-5.3	-0.5	-0.3%	-0.5
COc1ccc(C)cc1NC(=O)Cn1c(=O)oc2cc(S(=O)(=O)NCc3ccccc3)ccc21	.	-0.2%	24.6	.	.	-0.5%	1.2
CC(C)C1CC(C(=O)Nc2ccccc2)C(=O)O1 (configuration not stated)	.	1.1%	1.1	.	.	0.9%	0.6
Cc1ccc(CSC(Nc2ccc(F)cc2)=C(C#N)C#N)cc1	11.4%	?	70.4	6.3	4.1	-0.8%	1.7
Cc1noc(C)c1COc1ccccc1C(=O)NCCc1ccc(F)cc1	.	7.1%	-0.7	.	.	.	-0.1

Molecules from the list above that contain fluorine, in the order listed:
SMILES	Sfp PPTase inh	PINK1 modulator	TRPML1 inh	TRPV1 potentiator	Menin MLL FP FL	ClpP mod	TRPML1 ag
COc1ccc(F)c(-c2nc(CN3CCC(c4ccccc4)CC3)c(C)o2)c1	-2.3%	19.3%	0.3	-5.5	1.8	.	0.7
FC(F)Oc1ccc(NC(=S)NCC2COc3ccccc3O2)cc1 (configuration not stated)	0.3%	3.5%	14.3	8.2	6.8	-0.2%	0.2
Cc1ccc(CSC(Nc2ccc(F)cc2)=C(C#N)C#N)cc1	11.4%	?	70.4	6.3	4.1	-0.8%	1.7
Cc1noc(C)c1COc1ccccc1C(=O)NCCc1ccc(F)cc1	.	7.1%	-0.7	.	.	.	-0.1

New compounds follow.
SMILES	Sfp PPTase inh	PINK1 modulator	TRPML1 inh	TRPV1 potentiator	Menin MLL FP FL	ClpP mod	TRPML1 ag
COc1ccc(C(=O)OCCc2cc3ccccc3c(=O)o2)cc1	.	2.0%	-10.6	-6.3	.	0.3%	2.4
Cc1ccc(C(=O)c2oc3ccccc3c2NC(=O)COc2ccc(C(C)(C)C)cc2)cc1	.	1.2%	14.9	.	.	-1.2%	1.7
Cc1[nH]n(C(N)=S)c(=O)c1N=Nc1cc(-c2ccc(Br)cc2)[nH]n1	3.7%	0.1%	0.8	4.3	1.0	.	0.2
Cc1ccc(C)c(NC(=O)C2CCCN(S(=O)(=O)c3cccc4nsnc34)C2)c1 (configuration not stated)	.	-0.5%	41.6	.	.	0.1%	-1.3
COc1ccccc1C(=O)NNC(=O)c1cccc([N+](=O)[O-])c1	6.5%	0.1%	-4.9	8.7	0.2	0.2%	-0.7
COc1ccc(C(=O)NC(=S)NNC(=O)c2ccc(O)cc2)cc1[N+](=O)[O-]	9.6%	-1.3%	27.5	20.8	0.4	.	0.8
Cc1ccc(N2CC(C(=O)N/N=C/c3c(F)cccc3Cl)CC2=O)cc1 (configuration not stated)	-1.2%	5.1%	-7.4	-6.6	-0.5	0.6%	2.2
CCN1CCN(CCC(=O)Nc2ccc(Br)cc2)CC1	?	-1.9%	-9.2	-0.3	-3.3	.	0.9
CN(C(=O)CS(=O)(=O)c1cn(CC(=O)N2CCCCC2)c2ccccc12)c1ccccc1	7.2%	0.3%	-0.9	16.3	.	-0.4%	-0.3
CCOC(=O)C1=C(C)N(C)C(=O)NC1c1c(O)ccc2ccccc12 (configuration not stated)	16.5%	-1.3%	9.1	-2.9	-5.5	.	-0.4
CN(C)c1ncc2nc(-c3ccccc3)c(=O)n(C[C@H]3CCCO3)c2n1	14.0%	0.5%	.	.	-6.1	.	.
Cc1ccc(NC(=O)CN2C(=O)S/C(=C/c3ccncc3)C2=O)cc1	-2.8%	5.7%	10.1	-3.6	.	0.8%	0.2
CCCn1nc(C(=O)Nc2nc(-c3ccccn3)cs2)c2ccccc2c1=O	.	5.9%	3.3	14.2	.	0.4%	0.5
COc1ccc(CCC(=O)Nc2nc3ccccc3[nH]2)cc1OC	20.4%	1.2%	-7.3	16.1	3.3	-0.8%	-0.9
CCn1c(CCc2ccccc2)nnc1SCC(N)=O	0.7%	-0.7%	0.5	2.7	3.1	.	0.2
Cc1cc(C)c(C)c(S(=O)(=O)N2CCN(C(=O)c3cc(S(=O)(=O)N4CCOCC4)ccc3F)CC2)c1C	.	1.5%	41.4	.	.	-4.6%	1.1
CC(C)C(NC(=O)c1ccccc1F)C(=O)NCc1ccc(S(=O)(=O)N2CCOCC2)cc1 (configuration not stated)	.	1.2%	-2.6	-10.8	.	.	2.3
COc1ccccc1C(=O)Nc1cccc(C(=O)OCc2cc(=O)n3ccsc3n2)c1	.	?	-0.5	.	.	-8.1%	-0.9
CCCn1c(N)c(NCCN2CCOCC2)c(=O)n(CC(=O)NCc2ccccc2)c1=O	-9.1%	1.1%	41.7	24.7	0.8	-1.3%	0.6
O=C(CSc1nn(-c2ccc(F)cc2)c(=S)s1)NC1CCS(=O)(=O)C1 (configuration not stated)	13.6%	0.3%	20.0	0.8	2.4	.	0.1
CSCCC(NC(=O)c1ccccc1)C(=O)NCc1ccco1 (configuration not stated)	16.6%	2.6%[38.3 µM]	-13.1	3.6	0.9	-0.8%	0.3
Cn1cc(S(=O)(=O)N2CCN(c3cccc(C(F)(F)F)c3)CC2)c(=O)n(C)c1=O	0.9%	4.2%	29.4	.	-0.8	0.3%	0.0
O=C(CCOc1ccccc1)Nc1ccc(Cl)c(S(=O)(=O)N2CCOCC2)c1	.	2.6%	-3.9	16.6	.	-1.7%	0.4
COc1ccc2c(c1)O[C@@H](c1cccc(C(F)(F)F)c1)[C@H](OC(=O)Nc1ccc(OC(F)F)cc1)C2=O	-5.6%&16.2%	3.0%	19.9	-3.8	5.0&8.9	-17.7%	1.0
CCC(=O)N1CCc2cc(Br)cc(S(=O)(=O)NCc3ccccc3OC)c21	2.9%	-0.2%	-9.9	1.2	7.3	.	-0.3
CCOc1ccc(S(=O)(=O)NCCC2=CCCCC2)c2ccccc12	3.1%	-0.4%[38.3 µM]	18.0	-3.6	4.9	?	3.8
Cc1ccccc1NC(=O)CON=C(N)c1ccccc1	.	-1.9%	0.3	11.6	.	1.1%	-0.2
CCOC(=O)c1cc(-c2ccccc2)n(CC2CC(c3ccc(OC)cc3)=NO2)n1 (configuration not stated)	0.2%	1.5%	-2.3	-13.5	0.5	0.6%	1.5
CCCCCc1c(O)nc(SCCN(CC)CC)[nH]c1=O	5.0%	-1.1%	-11.2	-1.2	-0.9	-2.5%	-0.3
CCN(CC1CCCO1)C(=O)CCc1nnc(CCc2ccccc2OC)o1 (configuration not stated)	13.7%	0.5%	-5.3	-0.6	.	-0.8%	0.0
Nc1ccc(C(=O)NCCCCCCNC(=O)c2ccc(N)cc2)cc1	-0.7%	0.3%	-4.4	-2.0	-1.1	-2.9%	1.7
CCN(C(=S)Nc1ccccc1F)C1CCCCC1	-11.5%	.	-10.1	-4.6	7.2	-11.7%	0.1
O=C(Nc1ncccc1O)c1c(O)c2ccccc2[nH]c1=O	1.0%	17.2%	8.0	.	3.9	-0.5%	-0.6
C(=N\Nc1nc2ccccc2[nH]1)/c1c[nH]c2ccccc12	?	1.7%	5.7	6.7	4.3	0.3%	-0.7
COc1cc(/C=N/NC(=O)c2ccncc2)cc(OC)c1OC	19.9%	0.9%	5.6	25.5	6.5	-7.8%	-0.1
COc1ccc(NC(=O)Nc2nnc([C@H]3C[C@H](O)[C@@H](CO)O3)s2)cc1	.	0.5%	.	.	.	-1.7%	-0.2
CCCc1cc(=O)oc2cc(OCC(=O)NC(Cc3c[nH]c4ccc(O)cc34)C(=O)O)c(Cl)cc12 (configuration not stated)	8.7%	0.0%	8.3	-5.4	-1.3	-26.6%	0.2
CC(=O)c1sc(C(C)(C)C)cc1NC(=O)/C=C/C(=O)O	-7.2%	-0.3%	16.4	6.5	2.1	.	0.0
COc1ccc(NC(=O)Nc2ccc3c(c2)C(=O)N([C@H](C)CO)C[C@H](C)[C@@H](CN(C)S(=O)(=O)c2ccc(F)cc2)O3)cc1	.	-1.5%	-6.5	.	.	-3.2%	0.2

From PubChem
